miR-21 reporter: qHTS Assay for Modulators of miRNAs and/orActivators of miR-21; HeLa miR-21 FLuc reporter, luciferase, 48 h; Potency, µM (doses to about 38.3 µM), for inactives: top-dose reporter change, positive = more light; 340,000 tested, under 10 active; active = well fitted rising curve with a large enough effect; inconclusive = small, poorly fitted or top-dose-only effect; inactive = no such curve, though single readings can be large or run the other way;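 further: % of control where 0% means no effect; miR-21 action dims this reporter so a rising signal means less miR-21 action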
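Compounds were titrated across several concentrations (up to approximately 40 uM) and incubated 48 hours with HeLa miR-21-FLuc reporter cells (miR-21 target sequence downstream of FLuc, endogenous miR-21). Readout was firefly luciferase luminescence after lytic detection reagent.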
GLA inh pH 4.5: qHTS Assay for Inhibitors of Human alpha-Galactosidase at pH 4.5. AID 1467, 2008. activity change, negative = inhibition, % at 105 µM. Alpha-galactosidase A (Homo sapiens), P06280. purified enzyme, 4-MU-alpha-Gal fluorescence, pH 4.5. 230,000 tested, under 10 active; inconclusive = small, poorly fitted or top-dose-only inhibition, or a rising curve; inactive = flat fitted curve, though single readings scatter; no compound was filed as active;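 further: 0% = full activity with enzyme and -100% = basal without enzyme; dose as in the result columns while the protocol names 77 µM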
Target sequence (P06280 whole entry, looked up): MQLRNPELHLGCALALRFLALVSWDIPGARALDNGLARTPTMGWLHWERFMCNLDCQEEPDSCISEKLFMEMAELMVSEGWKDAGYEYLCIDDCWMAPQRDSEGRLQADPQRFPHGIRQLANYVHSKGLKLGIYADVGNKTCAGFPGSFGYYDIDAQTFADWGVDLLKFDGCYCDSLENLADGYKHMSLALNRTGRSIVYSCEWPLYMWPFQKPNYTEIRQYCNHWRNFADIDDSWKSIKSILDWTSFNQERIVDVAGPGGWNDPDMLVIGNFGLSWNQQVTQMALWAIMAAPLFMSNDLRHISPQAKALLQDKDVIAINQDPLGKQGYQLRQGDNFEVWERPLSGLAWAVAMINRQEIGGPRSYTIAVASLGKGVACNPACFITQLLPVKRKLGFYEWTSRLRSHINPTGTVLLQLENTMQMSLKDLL
Rango complex inh: qHTS Assay for Inhibitors of Rango (Ran-regulated importin-beta cargo) - Importin beta complex formation. Potency, µM (highest dose often 92.2 µM), for the others: at the top dose inhibition of complex formation. 340,000 compounds, 0.031% hits. Rango CFP/YFP FRET sensor + importin beta, 45 min. AID 540263, 2011; active = rising FRET ratio curve, often small or poorly fitted; inconclusive = mostly compound fluorescence or quenching in the first reads; inactive = flat curves in all reads;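 further: potency means the concentration at half of the fitted maximal effect; 0% = DMSO wells and 100% = buffer wells lacking importin beta; nearly all actives have a fitted effect of over 15% in size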
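Inhibition scored from the CFP 486 nm/YFP 530 nm FRET ratio 45 min after adding 0.125 microM importin beta to 50 nM Rango biosensor preincubated 5 min with compound (room temperature, PBS with DTT, Tween-20, BSA). No-importin wells as positive control.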
Rango release inh: qHTS Assay for Inhibitors of RanGTP induced Rango (Ran-regulated importin-beta cargo) - Importin beta complex dissociation. 340,000 compounds, 0.071% hits. AID 540253, 2011. Potency, µM (highest dose often 46.1 µM), inactives show top-dose activity change, negative = inhibition. Snurportin-1 (Homo sapiens) + GTP-binding nuclear protein Ran (Homo sapiens) + Importin …. Biochemical FRET Rango-importin beta, RanGTP-induced dissociation; active means falling FRET ratio curve, often poorly fitted, with flat reads before Ran was added; inconclusive means other falling curves, or compound fluorescence or quenching; inactive means flat or rising ratio curve;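 further: potency means the concentration at half of the fitted maximal effect; % of control where 0% means no effect; nearly all actives have a fitted effect of over 45% in size; -100% = wells without RanGTP and RCC1; the record marks most hits as doubtful in a second field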
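Quantitative HTS using a FRET biosensor: 0.1 uM Rango, 0.25 uM importin beta, 0.6 uM Ran, 2 mM GTP, 0.2 uM RCC1 final, PBS with DTT, Tween-20 and BSA. Post-read taken 45 min after Ran addition.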
Active calls of the source: *; ? = inconclusive; · = not tested or not shown; & = joins results of further samples. This is a subset; count on the stated rates, not on these rows.

SMILES | miR-21 reporter | GLA inh pH 4.5 | Rango complex inh | Rango release inh
C=CCc1cccc(/C=N/NC(=O)CCC(=O)Nc2ccc(F)cc2)c1O | 21% | 1 | -0.5% | -10%
Cc1cc([N+](=O)[O-])nn1CC(=O)Nc1cc(F)ccc1F | -1% | 5 | -1.0% | 0%
CN(C)S(=O)(=O)c1cccc(-c2csc(N/N=C/c3ccco3)n2)c1 | -10% | -17 | -2.6% | -21%
O=c1oc2ccccc2c(N2CCC(c3ccccc3)CC2)c1[N+](=O)[O-] | -1% | -8 | 2.9% | 13%
CN(C)CC1CCC/C(=C\c2ccc(OC(=O)/C=C/c3ccccc3)cc2)C1=O (stereo unspecified) | · | · | -0.3% | -24%
COc1ccc(CCNC(=O)CCCc2ccccc2)cc1OC | -5% | · | 6.3% | -1%
CCc1cc(=O)oc2c(C)c(OCC(=O)N3CCCc4ccccc43)ccc12 | -1% | 0 | -1.4% | -7%
c1ccc(-c2ccccc2OCCOCCN2CCCCC2)cc1 | 22% | -7 | 1.2% | -8%
COc1cc(/C=N/NC(=O)c2nonc2N)cc(OC)c1OC | -1% | -6 | -2.1% | 18%
Cc1cc(Cl)ccc1OCC(=O)N/N=C1\CC2C=CCC12 (stereo unspecified) | -13% | -2 | 1.2% | -21%
CCCCn1c(N)c(N(CC(C)C)C(=O)c2cccc(S(=O)(=O)N3CCCCC3)c2)c(=O)[nH]c1=O | · | · | 0.1% | 3%
Cc1cc(C(=O)NCC(=O)OCC(=O)Nc2ccc(OC(F)F)cc2)ccc1[N+](=O)[O-] | 0% | 3 | 0.9% | 10%
CCOc1ccccc1Nc1nnc(SCC(=O)Nc2ccc3[nH]c(=O)[nH]c3c2)s1 | -15% | 3 | -1.4% | ?
O=c1c2ccccc2oc2cc(NCCCn3ccnc3)ccc12 | -48% | · | ? | ?
O=C(Nc1nnc(SCc2ccc(Cl)cc2)s1)c1ccco1 | -2% | 2 | 3.2% | -9%
Cc1nc(CN(C)C(=O)CC2C(=O)NCCN2Cc2ccc(-c3ccccc3)cc2)cs1 (stereo unspecified) | -21% | · | -0.9% | 0%
Cc1cc(C(=O)N2CCCC2C(=O)O)c(C)o1 (stereo unspecified) | -1% | -5 | 2.0% | 4%
O=[N+]([O-])c1ccc(Cl)c(/C=N/Nc2nc(N3CCOCC3)nc(N3CCOCC3)n2)c1 | -2% | 4 | -5.3% | -19%
CC(NC(=O)CN(C)Cc1cccc(F)c1)c1ccccc1 (stereo unspecified) | 0% | · | -2.8% | 0%
O=C(O)c1cccc(Nc2ccncc2[N+](=O)[O-])c1 | -5% | · | -4.9% | 1%
O=C(CN(CC1CCCO1)C(=O)CNS(=O)(=O)c1ccc(F)cc1)NCC1CCCO1 (stereo unspecified) | 7% | · | -5.2% | 1%
CCOC(=O)c1[nH]c2ccccc2c1N=CN(CC)CC | -2% | -14 | -1.2% | 2%
CN(CCOC(=O)c1cccc(Br)c1)C(C)(C)C | 3% | -5 | 2.5% | ?
CCOc1ccc(N/C(N)=N/c2nc(CSc3nnnn3-c3ccccc3)cc(=O)[nH]2)cc1 | 0% | -1 | 2.9% | -1%
COc1ccc(/C=C2\SC(=O)N(CC(=O)NNC(=O)c3ccccc3O)C2=O)cc1 | -7% | -1 | ? | 10%
Following part:
SMILES | miR-21 reporter | GLA inh pH 4.5 | Rango complex inh | Rango release inh
COc1ncnc2c1oc1nc(C)c3c(c12)CC(C)(C)OC3 | 0% | 0 | 0.0% | -6%
O=C(NC(=S)NCCN1CCOCC1)c1ccc(Cl)cc1 | -44% | 0 | 2.4% | 9%
O=C(O)c1ccc(S(=O)(=O)c2ccccc2C(=O)O)c([N+](=O)[O-])c1 | -3% | · | 1.7% | 0%
Cc1ccc(-n2cc(CN3CCNC(=O)CC3)c(-c3ccc(F)cc3)n2)cc1 | -22% | -8 | -0.6% | -2%
O=C(Nc1ccncc1)C1CCN(S(=O)(=O)c2c(Cl)cccc2Cl)CC1 | · | · | 1.9% | 0%
COc1cccc(C(CNc2ccc(S(=O)(=O)N3CCN(C)CC3)cc2[N+](=O)[O-])N(C)C)c1 (stereo unspecified) | · | · | -2.7% | 20%
CC(C)C(=O)Nc1ccccc1-c1nc2ccccc2[nH]c1=O | -4% | · | 0.9% | -10%
O=[N+]([O-])c1ccccc1CN1CCN(c2ncccn2)CC1 | -4% | · | -5.8% | -1%
COc1ccc2[nH]cc(CCNC(=S)NC3CCCC3)c2c1 | 0% | 2 | 0.0% | -1%
Cc1ccc(-c2noc(CSc3ccccc3)n2)cc1 | -51% | 5 | 1.8% | 0%
CCCN(CC(=O)Nc1ccccc1OC)C(=O)C1=COCCO1 | · | · | -0.2% | -2%
N#Cc1c(-c2ccc(C(F)(F)F)cc2)cc(-c2ccccc2)[nH]c1=S | -8% | 6 | 7.5% | -3%
Cc1cccc(-n2ncc3c2CCCC3NC(=O)CCCN2CCCCC2=O)c1C (stereo unspecified) | 4% | · | 1.4% | -3%
Nc1ccc(NC(=O)NC2CCCCC2)cc1[N+](=O)[O-] | -58% | -2 | -1.5% | -1%
O=C(O)CNS(=O)(=O)c1ccc2c(c1)Cc1cc(S(=O)(=O)NCC(=O)O)ccc1-2 | -5% | · | 0.1% | 15%
CC(C)Cn1c(N)c(C(=O)COC(=O)C2CCCCC2)c(=O)n(C)c1=O | 1% | 0 | -2.3% | -7%
O=C(CCNC(=O)c1ccc(Br)cc1)Nc1ncccc1O | · | · | 6.7% | -5%
Cc1nn(C(C)(C)C)c(OC(=O)C2CCCC2)c1S(=O)(=O)c1ccccc1 | -1% | -1 | 2.8% | 0%
CCCCC1=CC2=CC(=O)C(C)(OC(=O)CC)C(=O)C2=CN1CCc1ccccn1 (stereo unspecified) | -2% | 5&-10 | ? | ?
CC(C)OC(=O)c1cc(C(=O)c2cc(F)ccc2O)coc1=N | -4% | 5 | ? | ?
COc1ccc(C(C(=O)NC2CCCC2)N(C(=O)c2ccoc2C)c2ccccc2)cc1 (stereo unspecified) | -8% | 0 | 2.2% | 8%
Oc1ccc(/C=C/c2cnccn2)cc1 | -48% | -11 | -2.7% | 2%
O=C1/C(=C/c2ccc(N3CCOCC3)o2)SC(=Nc2ccccc2)N1CCc1c[nH]c2ccccc12 | ? | -13 | ? | ?
Cc1cc(C)c(S(N)(=O)=O)c(C)c1-n1cnnn1 | -3% | -18 | 4.2% | 58%
COc1ccc(Cc2nnc(NC(=O)CSc3ccc(Cl)cc3)s2)cc1OC | 0% | 6 | · | ·
Continued:
SMILES | miR-21 reporter | GLA inh pH 4.5 | Rango complex inh | Rango release inh
CCOc1ccc(C(=O)N(Cc2ccc(N(C)C)cc2)C2CCS(=O)(=O)C2)cc1 (stereo unspecified) | -4% | 0 | 0.3% | -16%
O=S(=O)(c1ccccc1)c1cnc(-c2cccnc2)nc1-c1ccccc1 | 0% | -9 | 3.1% | 0%
CC(=O)c1ccc(NC(=O)COC(=O)c2nc(Cl)ccc2Cl)cc1 | 0% | -26 | 0.8% | -7%
Cc1snc(S(=O)(=O)/C(C#N)=N/Nc2ccc(C(F)(F)F)cc2)c1C#N | -7% | -4 | 2.1% | -7%
CCc1cc(=O)oc2c(C)c(OCC(=O)N3CCC(C(=O)O)CC3)ccc12 | 0% | · | -2.8% | 14%
CCOc1ccc(OCc2ccc(C(=O)N3CCOCC3)cc2)cc1 | -30% | -8 | 0.4% | 2%
Cn1nc(C(=O)Nc2cccc(C(=O)NC3CC3)c2)c2ccccc2c1=O | · | · | -3.1% | 13%
O=C1CC(SC(=Nc2ccccc2)Nc2ccccc2)C(=O)N1c1cccc(Cl)c1 (stereo unspecified) | -3% | -23 | 1.6% | -6%
CCN(CC)CCCN1C(=O)C(=O)/C(=C(/O)c2ccc3c(c2)CC(C)O3)C1c1ccncc1 (stereo unspecified) | 3% | 1 | · | ·
CC(Sc1nnc(CC(C)c2ccccc2)n1N)C(N)=O (stereo unspecified) | -4% | · | -1.3% | 14%
CCCc1c(C(=O)Nc2cc(C(C)(C)C)on2)cnn1-c1ccccc1 | -1% | -3 | 0.1% | 2%
COc1ccc(-c2nnc3n2N=C(c2cccc(Br)c2)CS3)cc1OC | -10% | 0 | · | ·
O=C(NCc1ccc(F)cc1)c1cc2ccccn2n1 | -17% | 7 | -2.9% | -2%
CCc1noc(C)c1C(=O)Nc1nc2ccc(OC)cc2s1 | · | · | -0.2% | 10%
CCCCCOc1ccc(C(=O)OCC(=O)Nc2cc(C)c(C)cc2[N+](=O)[O-])cc1 | -4% | 4 | 1.0% | -12%
COc1cc2c(cc1OC)CN(c1nc(-c3cccnc3)nc3ccccc13)CC2 | ? | 4 | 1.3% | 3%
CCOc1ccc(NC(=O)CN2C(=O)NC(CCSC)C2=O)cc1 (stereo unspecified) | -2% | 6 | 8.7% | 9%
COc1cc(C(C)=O)ccc1OCC(=O)Nc1cc(C)on1 | · | · | 0.7% | -3%
C[C@@]12C(=O)OC(=O)[C@]1(C)C1CCC2O1 | · | · | 2.2% | ?
COc1ccccc1C(=O)Nc1ccc2nc(SCC(=O)N(C)C)sc2c1 | -31% | 3 | 4.1% | 0%
CC1=C(c2ccccc2)[N+](=O)C2(CCCC2)N1[O-] | -2% | 2 | 4.3% | ?
O=C(NCc1nc(-c2ccccc2)no1)Nc1ccc(F)cc1 | 0% | 5 | 1.0% | ?
COc1ccccc1/C=C/C(=O)OCC(=O)c1cc(C)n(C)c1C | · | · | -2.9% | 0%
O=C1C(=O)N(Cc2cccnc2)C(c2cccc([N+](=O)[O-])c2)/C1=C(/O)c1ccc2c(c1)OCO2 (stereo unspecified) | -1% | · | -2.5% | -7%
O=C(CSc1ccc(-c2ccco2)nn1)c1ccccc1 | -41% | 4 | -5.0% | 15%
Other structures.
SMILES | miR-21 reporter | GLA inh pH 4.5 | Rango complex inh | Rango release inh
O=C(Nc1ccc(Br)cc1F)c1cccnc1 | -46% | 5 | 4.7% | -23%
CN(Cc1nc(-c2cccnc2)no1)S(=O)(=O)c1ccc2ccccc2c1 | -15% | 4 | 0.0% | -11%
COc1cccc(C(C(=O)NCc2ccco2)N(Cc2ccco2)C(=O)Cn2nnc3ccccc32)c1 (stereo unspecified) | 0% | 3 | -1.7% | -8%
CC1=C(C(=O)OCc2ccccc2)C(c2ccccc2)NC(=O)N1CCCC(=O)O (stereo unspecified) | 1% | · | -0.3% | -15%
O=C(Nc1nnc(Cc2ccc(Cl)cc2)s1)c1ccncc1 | -3% | 3 | 1.9% | -3%
O=C(Nc1ccc(Br)cc1)c1ccc2c(c1)OCO2 | -52% | · | 1.4% | 3%
O=C(O)c1ccccc1Nc1ccc([N+](=O)[O-])cc1C(=O)O | -1% | 0 | ? | ?
O=C(Nc1nc(-c2cccs2)cs1)c1ccc(Cl)s1 | -36% | 13 | 3.6% | 12%
COC(=O)c1cc2n(n1)CCN(Cc1ccccc1F)C2=O | 2% | 3 | 6.7% | 13%
COc1cccc(NC(=O)CCN2CCN(C)CC2)c1 | -9% | 1 | 0.4% | 17%
Cc1ccc(NC(=O)CCC(=O)c2cc(C)sc2C)nc1 | · | · | 0.5% | 2%

Five of the compounds above, in markdown:
| smiles | miR-21 reporter | GLA inh pH 4.5 | Rango complex inh | Rango release inh |
| --- | --- | --- | --- | --- |
| O=C(Nc1nc(-c2cccs2)cs1)c1ccc(Cl)s1 | -36% | 13 | 3.6% | 12% |
| CC1=C(C(=O)OCc2ccccc2)C(c2ccccc2)NC(=O)N1CCCC(=O)O (stereo unspecified) | 1% | · | -0.3% | -15% |
| O=C(Nc1nnc(Cc2ccc(Cl)cc2)s1)c1ccncc1 | -3% | 3 | 1.9% | -3% |
| CN(Cc1nc(-c2cccnc2)no1)S(=O)(=O)c1ccc2ccccc2c1 | -15% | 4 | 0.0% | -11% |
| O=C(Nc1ccc(Br)cc1F)c1cccnc1 | -46% | 5 | 4.7% | -23% |

From PubChem
